Vif A3G = HIV-1 Vif–A3G interaction blockers – biochemical, TR-FRET, GST-Vif 1-94, biotin-A3G peptide, dose response retest, primary screen (AID 1117319); TR-FRET GST-Vif / biotin-A3G peptide binding; higher % means a stronger effect; test concentration not given here; strong numbers were not always called active; one-dose inhibition, %; IC50 in µM for titrated hits; hit rate 0.57% among 260,000;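 active means above the screen mean plus three standard deviations and confirmed in dose response; inconclusive means results disagree or hit not tested in dose response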;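 further: Vif residues 1-94 fused to GST binding biotinylated APOBEC3G peptide 110-148; 0% = full assay without inhibitor and 100% = GST in place of GST-Vif; retest series ran down from 100 µM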
UCH37 DUB inh = inhibitors of human deubiquitinating enzyme UCH37; Q9Y5K5; purified proteasome/UCH37, Ub-AMC cleavage fluorescence; inhibition, % (no concentration beside the values); hit rate 0.33% among 330,000;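 active means mean of two replicates above 20%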;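 further: 0% = compound-free wells with enzyme and 100% = wells lacking proteasome; stock transfer was 100 nL into about 20 µL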
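Assay system: Proteasome-bound UCH37. Buffer or medium: pH 7.4 Tris-HCl (50 mM) with ovalbumin, ATP-MgCl2, DTT. Incubation: 30 min preincubation with enzyme, 25 min cleavage at room temperature. Measured by: fluorescence, ex 355 nm, em 460 nm. Read-out basis: percent inhibition. Control set: wells without proteasome as full block, compound-free enzyme plus substrate as uninhibited.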
Bfl-1 A1 inh = inhibitors of the anti-apoptotic protein A1, read as caspase activation; MEF A1-2A-BIM cells, Caspase-Glo 3/7 luminescence, 3 h; percent of clofoctol response, vehicle zero; caspase activation, % (test concentration not listed); hit rate 0.066% among 330,000; AID 2462;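 active means over half of replicate activation scores above 10%, or exactly half above 10 with the replicate mean above 10; inconclusive means replicate mean below 10 yet half the replicates above 10; inactive means over half of replicates below 10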;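 further: wells of about 30 µL received 50 nL stock; many hits fall short of the cut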
HNF4A DNA FP = change in binding of human HNF4 alpha to DNA. activity change, % at 10 µM. AID 1224865. HNF4a-FITC DNA binding, fluorescence polarization, 1 h. hit rate 0.3% among 360,000; in the data active means activity change above about 30%, passing the limit was not always enough;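 further: controls were the assay level and a saturating level of protein; the project sought stronger binding though the title names inhibitors; some compounds called inactive have numbers as strong as hits; positive values seem to mean higher polarization but the record does not say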
LANA-H2A inh = blocks KSHV LANA binding to histone H2A/H2B. hit rate 0.6% among 320,000. cell-free LANA-H2A/H2B peptide, fluorescence polarization. inhibition, % (test concentration not listed). AID 2629; in the data active means inhibition mostly above about 10%, no sharp cut-off; inactive means mostly below about 6.7%;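 further: stock transfer was 7.5 nL into about 10 µL; 0% = median of vehicle wells and 100% = median of positive control wells; one replicate is shown; the record names a cut of 25% in any replicate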
Target sequence (Q9QR71 whole entry, looked up): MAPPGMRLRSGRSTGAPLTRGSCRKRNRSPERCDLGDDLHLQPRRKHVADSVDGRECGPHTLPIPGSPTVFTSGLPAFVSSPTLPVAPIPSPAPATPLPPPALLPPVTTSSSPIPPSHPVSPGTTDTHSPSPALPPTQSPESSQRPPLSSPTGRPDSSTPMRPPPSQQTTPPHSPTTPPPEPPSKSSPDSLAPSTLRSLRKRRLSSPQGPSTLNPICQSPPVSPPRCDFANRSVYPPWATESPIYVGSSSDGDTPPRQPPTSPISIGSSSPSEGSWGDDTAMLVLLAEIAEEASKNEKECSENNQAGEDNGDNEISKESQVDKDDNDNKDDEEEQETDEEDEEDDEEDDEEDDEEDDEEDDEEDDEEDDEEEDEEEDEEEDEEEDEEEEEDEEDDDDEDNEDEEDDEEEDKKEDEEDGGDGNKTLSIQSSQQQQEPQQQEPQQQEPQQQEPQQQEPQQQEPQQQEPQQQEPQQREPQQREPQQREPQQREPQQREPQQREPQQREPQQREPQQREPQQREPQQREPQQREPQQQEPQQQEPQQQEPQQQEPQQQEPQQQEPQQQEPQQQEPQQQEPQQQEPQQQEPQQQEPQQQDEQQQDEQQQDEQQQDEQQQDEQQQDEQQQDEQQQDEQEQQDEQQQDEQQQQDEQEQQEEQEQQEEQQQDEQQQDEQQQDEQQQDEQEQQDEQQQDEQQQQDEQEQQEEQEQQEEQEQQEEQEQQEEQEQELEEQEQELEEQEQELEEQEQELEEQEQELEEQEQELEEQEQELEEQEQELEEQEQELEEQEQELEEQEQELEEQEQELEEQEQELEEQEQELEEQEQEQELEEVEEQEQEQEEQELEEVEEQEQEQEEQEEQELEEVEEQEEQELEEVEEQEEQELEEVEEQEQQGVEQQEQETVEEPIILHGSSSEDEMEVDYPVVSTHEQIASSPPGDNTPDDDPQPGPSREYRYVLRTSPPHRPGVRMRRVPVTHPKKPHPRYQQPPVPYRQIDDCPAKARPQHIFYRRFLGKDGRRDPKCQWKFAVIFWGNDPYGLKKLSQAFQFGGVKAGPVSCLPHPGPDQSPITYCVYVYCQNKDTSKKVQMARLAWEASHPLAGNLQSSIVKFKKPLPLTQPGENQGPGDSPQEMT
B2AR ag = human beta-2 adrenergic receptor agonism by FAP; AID 504454; Am2.2-beta2AR cells, FAP receptor internalization, flow cytometry; reference of the scale not given here; hit rate 0.43% among 340,000; P07550; response, % (no concentration beside the values);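 active means response above a set limit, near 3 SD of response in nonfluorescent compounds, cut at about 42% in these data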;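 further: stock transfer was 100 nL into about 11 µL; a reference agonist was the positive control; negative values mostly stem from fluorescent compounds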
E coli growth = blocks Escherichia coli growth; AID 1053175; hit rate 0.21% among 330,000; OD600 absorbance (concentration not given with the values); OD600, 23 h; stronger effect = lower value;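 active means OD600 absorbance below the run mean of sample wells minus 3.6 SD, in any replicate, cut at about 0.56 in these data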;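 further: stock transfer was 300 nL into about 60 µL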
The depositor's hits bear a star. Compounds were not picked by outcome; overall some 2.1% were active at least once.

O=C(O)c1ccc2c(=O)[nH]c(CN3CCOCC3)nc2c1 was read as Vif A3G -3%, UCH37 DUB inh -2.0, Bfl-1 A1 inh 1.8, HNF4A DNA FP -1.0, LANA-H2A inh 2.8, B2AR ag 0 and E coli growth 0.75.
For Cc1nn(C)cc1CNC(=O)c1cnn2c(C(F)F)cc(C3CC3)nc12 the results were Vif A3G 6%, UCH37 DUB inh -1.3, Bfl-1 A1 inh -0.8, HNF4A DNA FP 1.4, LANA-H2A inh -7.3, B2AR ag -5 and E coli growth 0.77.
Screening CC(C)NC(=O)Nc1ccc2c(c1)C(=O)N([C@H](C)CO)C[C@@H](C)[C@@H](CN(C)C(=O)NC1CCCCC1)O2 returned UCH37 DUB inh -0.1, Bfl-1 A1 inh -0.4, HNF4A DNA FP 0.7, LANA-H2A inh -3.7 and B2AR ag -18.
Screening CC(C)c1ccc(O)c(NC(=O)c2ncn[nH]2)c1 returned Vif A3G 18%, UCH37 DUB inh 2.6, Bfl-1 A1 inh 1.3, HNF4A DNA FP 2.6, LANA-H2A inh 0.5, B2AR ag 9 and E coli growth 0.71.
Screening Cc1nnc(SCc2nnc(-c3cccs3)o2)n1C returned Vif A3G 14%, UCH37 DUB inh -3.1, Bfl-1 A1 inh 0.2, HNF4A DNA FP -3.5, LANA-H2A inh -0.8, B2AR ag -6 and E coli growth 0.64.
`Cc1cc(OCc2cc(C(=O)N(C)CC3CCOCC3)no2)cc(C)c1Cl` gave UCH37 DUB inh 2.3, Bfl-1 A1 inh 1.0, HNF4A DNA FP -2.5, LANA-H2A inh 5.3, B2AR ag -4 and E coli growth 0.62.
Screening CN1/C(=C\C=C(/C#N)C(=O)Nc2ccc(Cl)cc2)C(C)(C)c2ccccc21 returned UCH37 DUB inh 3.8, Bfl-1 A1 inh 0.7, HNF4A DNA FP 66, LANA-H2A inh -5.5 and B2AR ag -28.
`CCOC(=O)N1CCC(NC(=O)c2cc(S(=O)(=O)N3CCCCC3)ccc2F)CC1` gave Vif A3G -4%, UCH37 DUB inh 4.3, Bfl-1 A1 inh 0.6, HNF4A DNA FP -1.4, LANA-H2A inh 1.7, B2AR ag -5 and E coli growth 0.69.
Screening Cc1cc(C)cc(C(=O)N(c2ccccn2)C(C)c2ccco2)c1 (stereo unspecified) returned Vif A3G 27%, UCH37 DUB inh -0.1, Bfl-1 A1 inh 0.5, HNF4A DNA FP -2.7, LANA-H2A inh -0.5, B2AR ag 2 and E coli growth 0.68.
For O=C(Nc1ccccc1N1CCCC1)c1cc(=O)[nH]c2ccccc12 the results were Vif A3G 0%, UCH37 DUB inh 2.3, HNF4A DNA FP 0.2, B2AR ag -4 and E coli growth 0.72.
Cc1cccc(Sc2nc(-c3ccccc3)ncc2C(=O)O)c1 was read as UCH37 DUB inh 1.7, Bfl-1 A1 inh 0.4, HNF4A DNA FP -0.8, LANA-H2A inh -5.3, B2AR ag 5 and E coli growth 0.68.
`Cc1cc(C)n(CC(O)COc2ccccc2Br)n1` (stereo unspecified) gave UCH37 DUB inh 3.0, Bfl-1 A1 inh 0.1, HNF4A DNA FP 2.9, LANA-H2A inh 4.1, B2AR ag 0 and E coli growth 0.67.
`COc1ccc(C(=O)Nc2cc(Cl)cc(Cl)c2)c(OC)n1` gave Vif A3G 6%, UCH37 DUB inh -3.0, Bfl-1 A1 inh -2.6, HNF4A DNA FP 1.0, LANA-H2A inh 4.4, B2AR ag 0 and E coli growth 0.77.
O=C(c1ccc(C(=O)N2CCOCC2)s1)N1CCOCC1 was read as Vif A3G -1%, UCH37 DUB inh 0.4, Bfl-1 A1 inh -0.1, HNF4A DNA FP 0.0, LANA-H2A inh 6.0, B2AR ag -6 and E coli growth 0.76.
For COc1ccc(OC)c(Nc2nc(C)nc3c2oc2ccccc23)c1 the results were Vif A3G 1%, UCH37 DUB inh inactive, Bfl-1 A1 inh 0.1, HNF4A DNA FP 6.5, LANA-H2A inh 1.8, B2AR ag 21 and E coli growth 0.68.
`FC(F)(F)Oc1ccc(NC(=S)Nc2ccc(OC(F)(F)F)cc2)cc1` gave Vif A3G 25%, UCH37 DUB inh 1.0, Bfl-1 A1 inh -0.6, HNF4A DNA FP 2.5, LANA-H2A inh 0.3, B2AR ag 15 and E coli growth 0.63.
O=C(CCSc1nc(-c2ccco2)cc(C(F)(F)F)n1)NCCN1CCOCC1 was read as UCH37 DUB inh 3.9, Bfl-1 A1 inh -0.2, HNF4A DNA FP 0.0, LANA-H2A inh -1.2, B2AR ag -11 and E coli growth 0.66.
For C=CCn1cc(C(=O)NCCCOC)c(=O)c2cc(S(=O)(=O)N3CCC(C)CC3)ccc21 the results were UCH37 DUB inh 3.8, Bfl-1 A1 inh 1.1, HNF4A DNA FP -1.1, LANA-H2A inh 11, B2AR ag -11 and E coli growth 0.69.
`CC(=O)Nc1ccc(S(=O)(=O)N(C)CC(=O)Nc2ccccc2N2CCCC2)cc1` gave Vif A3G 4%, UCH37 DUB inh -0.4, Bfl-1 A1 inh 0.0, HNF4A DNA FP 0.6, LANA-H2A inh -3.3, B2AR ag 12 and E coli growth 0.64.
O=C(COC(=O)c1ccc2ccccc2c1O)NCC(F)(F)F was read as Vif A3G 17%, UCH37 DUB inh -38, Bfl-1 A1 inh -0.2, HNF4A DNA FP -1.6, LANA-H2A inh -6.1, B2AR ag 4 and E coli growth 0.72.
`OCCN1CCN(Cc2cc(Cl)c3cccnc3c2O)CC1` gave Vif A3G 27%, UCH37 DUB inh 1.2, Bfl-1 A1 inh 0.5, HNF4A DNA FP -4.0, LANA-H2A inh 1.9, B2AR ag 7 and E coli growth 0.64.
`O=C(Nc1cccnc1)c1ccc(-c2cc(Cl)ccc2Cl)o1` gave UCH37 DUB inh -49, Bfl-1 A1 inh -0.1, HNF4A DNA FP 3.1, LANA-H2A inh 1.1, B2AR ag 10 and E coli growth 0.7.
Screening CC(C)n1c(N2CCN(C(=O)Nc3ccccc3)CC2)nc2ccccc21 returned Vif A3G -9%, UCH37 DUB inh 0.9, Bfl-1 A1 inh -0.1, HNF4A DNA FP 1.5, LANA-H2A inh -0.6, B2AR ag 1 and E coli growth 0.7.
CN(C)C(=O)c1ccc(NC(=O)c2ccccc2SCC(=O)N2CCCC2)cc1 was read as Vif A3G -5%, UCH37 DUB inh 2.7, Bfl-1 A1 inh 1.1, HNF4A DNA FP 1.3, LANA-H2A inh 0.4, B2AR ag -7 and E coli growth 0.71.
`COc1ccc2c(CC(=O)Nc3ccc(OC)nc3)coc2c1` gave Vif A3G inconclusive, UCH37 DUB inh 1.4, Bfl-1 A1 inh -0.5, HNF4A DNA FP 4.3, LANA-H2A inh -1.7, B2AR ag -2 and E coli growth 0.63.
`Cc1ccc(/C([O-])=C(/C(=S)NCc2ccccc2)[n+]2cccc(CO)c2)cc1[N+](=O)[O-]` gave Vif A3G 1%, UCH37 DUB inh 6.9, HNF4A DNA FP 1.9, B2AR ag -2 and E coli growth 0.65.
Screening Cc1ccc(-n2cnc3c(sc4nc(N5CCOCC5)c5c(c43)CCCC5)c2=O)cc1 returned Vif A3G -5%, UCH37 DUB inh -18, Bfl-1 A1 inh -0.1, HNF4A DNA FP 2.7, LANA-H2A inh 2.5, B2AR ag 6 and E coli growth 0.67.
CC(=O)N1CCCC(N2CCN(c3cccc(C(F)(F)F)c3)CC2)C1 (stereo unspecified) was read as UCH37 DUB inh 0.9, Bfl-1 A1 inh -0.3, HNF4A DNA FP 0.0, LANA-H2A inh 3.4, B2AR ag 1 and E coli growth 0.65.
`O=C(C1=NNCC1c1ccccc1)C1CO1` (stereo unspecified) gave UCH37 DUB inh 5.6, HNF4A DNA FP -1.0, B2AR ag -2 and E coli growth 0.68.
CC12CCC(C(=O)O)(c3nc(C#N)c(C#N)nc31)C2(C)C (stereo unspecified) was read as Vif A3G 5%, UCH37 DUB inh 6.8, Bfl-1 A1 inh 0.2, HNF4A DNA FP 1.0, LANA-H2A inh 7.8, B2AR ag 9 and E coli growth 0.72.
`CC1CCN(C(=O)CC(NC(N)=O)c2ccccc2Cl)CC1` (stereo unspecified) gave Vif A3G -7%, UCH37 DUB inh -2.1, Bfl-1 A1 inh -0.8, HNF4A DNA FP 1.7, LANA-H2A inh -2.0, B2AR ag 9 and E coli growth 0.7.
Cn1c(=O)c2cc(S(=O)(=O)NCCC(=O)NCCC3=CCCCC3)ccc2n(C)c1=O was read as Vif A3G 1%, UCH37 DUB inh 2.5, Bfl-1 A1 inh 0.8, HNF4A DNA FP 6.1, LANA-H2A inh 1.2, B2AR ag -8 and E coli growth 0.65.
`COc1cc(C(F)(F)F)nc(-c2ccccn2)n1` gave Vif A3G -7%, UCH37 DUB inh 4.4, Bfl-1 A1 inh -1.1, HNF4A DNA FP 2.2, LANA-H2A inh 9.4, B2AR ag -7 and E coli growth 0.7.
Screening CN(C)C(=O)c1sccc1Oc1ccc(F)cc1[N+](=O)[O-] returned Vif A3G 3%, UCH37 DUB inh 0.2, Bfl-1 A1 inh -0.5, HNF4A DNA FP -4.7, LANA-H2A inh -5.8, B2AR ag 1 and E coli growth 0.68.
`CCOC(=O)Cc1csc(NC(=S)NC(=O)c2ccc(F)cc2)n1` gave Vif A3G 1%, Bfl-1 A1 inh -0.4, HNF4A DNA FP 2.9, LANA-H2A inh 4.5, B2AR ag -2 and E coli growth 0.73.
Screening C=CCN1C(=O)c2ccc(C(=O)N(CC(C)C)c3c(N)n(CCCC)c(=O)[nH]c3=O)cc2C1=O returned Vif A3G 6%, UCH37 DUB inh -5.0, Bfl-1 A1 inh -0.2, HNF4A DNA FP 0.4, LANA-H2A inh 0.6, B2AR ag -4 and E coli growth 0.65.
Screening O=C(Cc1c[nH]c2ccccc12)NNC(=O)c1ccccc1 returned UCH37 DUB inh 0.7, Bfl-1 A1 inh -1.7, HNF4A DNA FP 4.3, LANA-H2A inh 2.7, B2AR ag 0 and E coli growth 0.69.
COc1ccc(C(=O)O/N=C(\N)c2ccccn2)c(OC)c1 was read as Vif A3G -4%, UCH37 DUB inh 0.3, Bfl-1 A1 inh -8.3, HNF4A DNA FP 5.5, LANA-H2A inh -2.0, B2AR ag 5 and E coli growth 0.69.
`COc1ccc(-c2c3c(=O)n(C)c(=O)n(C)c3cn2-c2ccccc2)cc1` gave Vif A3G 3%, UCH37 DUB inh -49, Bfl-1 A1 inh 0.7, HNF4A DNA FP 2.5, LANA-H2A inh -0.3, B2AR ag -16 and E coli growth 0.7.
CN(Cc1ccccc1)C(=O)c1ccc(COc2ccccc2)cc1 was read as UCH37 DUB inh -1.1, Bfl-1 A1 inh 0.4, HNF4A DNA FP -2.8, LANA-H2A inh 0.1, B2AR ag -4 and E coli growth 0.63.
Screening CCNS(=O)(=O)c1ccc(OCCNS(C)(=O)=O)cc1 returned Vif A3G -4%, UCH37 DUB inh 2.7, Bfl-1 A1 inh 0.1, HNF4A DNA FP -2.5, LANA-H2A inh -2.0, B2AR ag -6 and E coli growth 0.66.

2 compounds drawn at random from those above:
CN(Cc1ccccc1)C(=O)c1ccc(COc2ccccc2)cc1 was read as UCH37 DUB inh -1.1, Bfl-1 A1 inh 0.4, HNF4A DNA FP -2.8, LANA-H2A inh 0.1, B2AR ag -4 and E coli growth 0.63.
`CC1CCN(C(=O)CC(NC(N)=O)c2ccccc2Cl)CC1` (stereo unspecified) gave Vif A3G -7%, UCH37 DUB inh -2.1, Bfl-1 A1 inh -0.8, HNF4A DNA FP 1.7, LANA-H2A inh -2.0, B2AR ag 9 and E coli growth 0.7.

Bioassay records: PubChem, several laboratories
